# From PubChem
# PINK1 expr mod = modulators of PINK1 expression; PINK1 immunofluorescence, high-content cytometry, 24 h; Potency, µM (titrated, usually from 76.6 µM), inactives show at the highest dose activation (PINK1 increase), hits mostly activators; 410,000 compounds, 0.2% hits; AID 624263; active = well fitted activation curve with a large enough effect; inconclusive = small, poorly fitted or top-dose-only effect; inactive = flat fitted curve, though single readings scatter; cell line not stated here;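 also: potency is read from the fitted curve at half-maximal effect; % of control where 0% means no effect; nearly all actives have a fitted effect of over 65% in size; a mitochondrial uncoupler was the plate control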
#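 PINK1 protein, normally rapidly degraded, was detected by immunofluorescence after 24 hour compound treatment of a stable cell line. Titration data (5 concentrations) came from laser-scanning cytometry, with CCCP-treated wells as controls.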
# TRPML1 agonist = human mucolipin-1 channel agonism. Q9GZU1. TRPML1-expressing cells, Ca2+ dye fluorescence, FDSS; host cell line not named in the record; reference of the full effect not given here. AID 624414. activation, % (test concentration not listed). 410,000 compounds, 0.12% hits; in the data active = activation above about 50%; inconclusive = about 30% to 50%; inactive = below about 30%; also: 0% is about no effect; the text of the record puts the active cut at 80%
# Target sequence (Q9GZU1 whole entry, looked up): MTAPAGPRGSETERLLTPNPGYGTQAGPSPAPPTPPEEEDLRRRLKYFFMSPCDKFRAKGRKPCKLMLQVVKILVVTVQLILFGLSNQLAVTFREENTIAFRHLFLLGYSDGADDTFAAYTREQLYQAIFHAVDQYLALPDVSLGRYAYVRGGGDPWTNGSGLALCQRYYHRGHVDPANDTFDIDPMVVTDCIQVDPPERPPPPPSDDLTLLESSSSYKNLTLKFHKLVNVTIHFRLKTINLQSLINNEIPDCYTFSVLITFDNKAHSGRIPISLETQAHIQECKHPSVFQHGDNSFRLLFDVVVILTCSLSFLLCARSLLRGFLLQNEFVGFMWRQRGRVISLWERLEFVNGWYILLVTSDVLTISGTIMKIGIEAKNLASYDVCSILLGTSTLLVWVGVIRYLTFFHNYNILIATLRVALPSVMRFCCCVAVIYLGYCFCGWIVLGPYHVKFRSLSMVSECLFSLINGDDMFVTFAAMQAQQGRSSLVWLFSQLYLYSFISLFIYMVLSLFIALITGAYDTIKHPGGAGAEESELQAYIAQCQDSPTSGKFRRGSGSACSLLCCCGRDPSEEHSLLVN
#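 In this qHTS format, compounds were pin-transferred onto Ca8-dye-loaded TRPML1-DL cells induced with Tet overnight, and intracellular Ca2+ fluorescence was recorded kinetically for 110 s after a 10 s baseline. A subsequent 4uM final 54-4 (EC80) addition followed by a second 110 s read served as the antagonist phase.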
# Active calls of the source: *; ? = inconclusive.
# Order of results: PINK1 expr mod	TRPML1 agonist
Cc1cccc(-c2cc(C(=O)O)c3c(-c4ccc(F)cc4)[nH]nc3n2)c1
→ -0.7%	-0.6
Cc1ccc(N2CC(NC(=O)c3ccc(S(=O)(=O)N(C)C)cc3)CC2=O)cc1C (stereo not drawn)
→ -1.0%	-0.9
Cc1cc(-c2ccc(C)c(S(=O)(=O)Nc3cccc(C)n3)c2)on1
→ 0.7%	0.9
COc1ccccc1NC(=O)c1sc2cccc(Cl)c2c1Cl
→ 2.0%	1.1
Cc1ccc(NC(=O)C2(C)Cc3ccccc3C(=O)O2)c(C)c1 (stereo not drawn)
→ 6.7%	0.6
CCc1ccc(NC(=O)C2CCN(c3nn4c(=O)cc(C)nc4s3)CC2)cc1
→ 0.3%	-0.5
COc1ccc(NC(=O)c2c(NCc3cccs3)sc3c2CCC(C)C3)c(OC)c1 (stereo not drawn)
→ -1.2%	-0.3
CCc1ccc(NC(=O)c2ccc(F)c(S(=O)(=O)N3CCC(C)CC3)c2)cc1
→ -1.4%	2.7
CCc1ccc(CNC(=O)c2cc3c(=O)n(Cc4cccs4)ccc3nc2C)cc1
→ -0.3%	1.5
Cc1ccc(NC(=O)Cn2cc3c(n2)CCCC3)cc1Cl
→ -0.6%	-0.6

# Quoted at random: 5 entries already listed
# Order of results: PINK1 expr mod	TRPML1 agonist
Cc1ccc(NC(=O)C2(C)Cc3ccccc3C(=O)O2)c(C)c1 (stereo not drawn)
→ 6.7%	0.6
CCc1ccc(NC(=O)c2ccc(F)c(S(=O)(=O)N3CCC(C)CC3)c2)cc1
→ -1.4%	2.7
COc1ccc(NC(=O)c2c(NCc3cccs3)sc3c2CCC(C)C3)c(OC)c1 (stereo not drawn)
→ -1.2%	-0.3
COc1ccccc1NC(=O)c1sc2cccc(Cl)c2c1Cl
→ 2.0%	1.1
CCc1ccc(NC(=O)C2CCN(c3nn4c(=O)cc(C)nc4s3)CC2)cc1
→ 0.3%	-0.5

# Continuation.
# Order of results: PINK1 expr mod	TRPML1 agonist
CCc1ccc(CNC(=O)C2CCN(c3nnc(-n4c(C)ccc4C)s3)CC2)cc1
→ -0.1%	0.0
CCCC(=O)N1CC(=O)Nc2ccc(Cl)cc2C1c1ccccc1 (stereo not drawn)
→ -1.9%	-0.5
COc1ccc(CC(=O)Nc2sc3c(c2C(=O)Nc2ccccc2)CCCCC3)cc1
→ 2.5%	0.2
COc1ccc(N2CC(NC(=O)c3ccco3)CC2=O)cc1 (stereo not drawn)
→ -0.1%	1.0
COC(=O)c1ccc(NC(=O)CC2Nc3cc(C)c(C)cc3NC2=O)cc1 (stereo not drawn)
→ 11%	0.4
C(=C\c1c[nH]c2ccccc12)/c1nccc2ccccc12
→ 0.8%	16
Cc1oc2ncn(CC(C)C)c(=O)c2c1C(=O)NCCc1ccc(Cl)cc1
→ 3.1%	-0.5
COc1ccccc1N1CCN(S(=O)(=O)c2cc(-c3cc(C)no3)ccc2C)CC1
→ 0.3%	0.6
COc1cc(-c2noc(CN3CCN(c4cccc(Cl)c4)CC3)n2)cc(OC)c1OC
→ -0.2%	0.0
O=C(CSc1nc(-c2cccc(F)c2)[nH]c1-c1ccccc1)Nc1ccc2c(c1)OCCO2
→ ?	0.8
CC(NC(=O)c1ccc2c(c1)N(Cc1ccc(Cl)cc1)C(=O)CS2)c1ccccc1 (stereo not drawn)
→ 3.0%	3.0
COc1cc(-c2cc3n(C)c(C)c(CCC(=O)NCc4ccccc4)c(=O)n3n2)cc(OC)c1OC
→ 0.4%	-0.6
Cc1nc(N2CCCC2)c2c(C(=O)N3CCN(c4ccc(F)cc4)CC3)c(C)oc2n1
→ 3.8%	1.0
COc1cc(OC)cc(N2C(=O)CSC23C(=O)Nc2ccccc23)c1 (stereo not drawn)
→ 5.4%	1.6
CCCCNc1cc(NC2CCCCC2)c2c3c(onc13)-c1ccccc1C2=O
→ -0.6%	0.7
CCCCN(CC)CCCNC(=O)c1sc2nc3n(c(=O)c2c1C)CCCCC3
→ -0.6%	-0.7
COc1ccc(OC)c(NC(=O)CSc2c3c(nc4cc(Cl)ccc24)CCCC3)c1
→ 1.2%	0.0
CC(C)OCCCn1c(SCC(=O)c2ccccc2)nc2c(sc3ccccc32)c1=O
→ -0.9%	0.1
CC(C)CCn1c(=O)c2sccc2n2c(CCCC(=O)NC(C)C)nnc12
→ 0.2%	-0.6
CCOC(=O)c1c(NC(=O)c2ccc(S(=O)(=O)N3CCCC(C)C3)cc2)sc2c1CC(C)(C)NC2(C)C (stereo not drawn)
→ 7.2%	1.0
O=C(NCc1ccccc1)c1ccc2c(c1)N(Cc1ccc(F)cc1)CCS2
→ 3.8%	2.1
CCOc1ccc(NC(=O)CSc2nc3nc(C)c(Cc4ccccc4)c(C)n3n2)cc1
→ 1.4%	0.8
COc1ccccc1Cn1c(CNS(=O)(=O)c2ccccc2Cl)nc2cccnc21
→ 0.7%	0.4
COc1ccccc1N1CCN(S(=O)(=O)CCNC(=O)COc2ccc(F)cc2)CC1
→ -0.8%	2.7
CC(C)(C)NC(=O)COC(=O)CNC(=O)C1CCCCC1
→ 0.1%	-0.2
COc1ccc(N2Cc3cccc(C(=O)Nc4cc(C)cc(C)c4)c3C2=O)cc1
→ 0.1%	-1.0
Cc1cc(C)c(Cn2c3ccccc3c3cnn(CC(=O)NC4CCCCCC4)c(=O)c32)c(C)c1
→ 3.1%	-0.5
CCOc1ccccc1N1CC(c2nc3ccccc3n2CCOc2ccc(C(C)(C)C)cc2)CC1=O (stereo not drawn)
→ 3.4%	-1.1
O=C(Cn1ncc2c3ccccc3n(Cc3cccc(Cl)c3)c2c1=O)NC1CCCCCC1
→ 0.7%	0.2
Cc1cccc(Cn2nnc3c(=O)[nH]c(C4CCCN(C(=O)c5ccc(C(C)(C)C)cc5)C4)nc32)c1 (stereo not drawn)
→ -0.7%	3.5
Cc1cc(Nc2ccc(Br)cc2)nc(C)n1
→ 0.2%	-0.3
CCCCn1c(=O)c2oc3ccccc3c2n(Cc2ccccc2C)c1=O
→ -0.2%	-0.8
CCOc1ccccc1NC(=O)c1cc2c(=O)[nH]c3ccccc3c2s1
→ 2.2%	1.3
CCc1ccc(NC(=O)CSc2nc3ccccc3nc2Cc2ccccc2OC)cc1
→ 0.2%	0.4
Cc1cc(Nc2ccc(C)c(C)c2)n2cnnc2n1
→ 0.5%	-0.4
Cc1ccc(-n2nc3c(=O)n(CCCC(=O)NC(C)c4ccccc4)nc(C)c3c2C)cc1 (stereo not drawn)
→ 3.0%	1.8
Cn1ccc2c(OCC(=O)NCc3ccccc3Cl)cccc2c1=O
→ 0.2%	-0.7
Cc1ccc(-n2c3nc(=O)[nH]c(=O)c-3cc3c(Cl)cccc32)cc1
→ 4.8%	1.6
CCc1ccc(NC(=O)CN2C(=O)C(=O)c3ccccc32)cc1
→ 3.0%	-0.8
O=C(NCc1ccccc1)c1ccc2c(c1)nc1n2CCOC1
→ 1.9%	-0.2
Cc1ccc(NC(=O)Cn2c(-c3ccc4c(c3)OCO4)cn(-c3ccccc3)c2=O)cc1
→ -0.8%	1.0
COc1ccc(-n2nc3c(N4CCCC(C(=O)NCc5ccc(C)cc5)C4)nnc(C)c3c2C)cc1 (stereo not drawn)
→ 2.7%	2.2
CCOc1ccc(Br)cc1C1C(C(=O)OC)=C(C)NC2=C1C(=O)c1ccccc12 (stereo not drawn)
→ -1.7%	-0.5
Cc1ccc(CNC(=O)c2cnc3c(-c4ccccc4)c(C)nn3c2C)o1
→ 1.3%	1.6
CCOc1ccc(CC(=O)NCCc2csc(-c3ccc(C)cc3)n2)cc1
→ 1.9%	4.3
COc1ccc(C2N=C(N)Nc3nc4ccccc4n32)c(OC)c1OC (stereo not drawn)
→ 1.0%	0.3
COc1ccc(OC)c(NC(=O)[C@H](Cc2ccccc2)N2Cc3ccccc3C2=O)c1
→ 2.8%	0.0
N#Cc1nc(-c2ccc(OCc3ccc(Cl)cc3)cc2)oc1N1CCCC1
→ 0.4%	-0.4
Cc1ccc(-c2onc(C)c2C)cc1S(=O)(=O)N1CCOc2ccc(Cl)cc21
→ 3.1%	0.8
Cc1cccc(NC(=O)N2CCc3c(sc4c3CCCC4)C2c2ccc(F)cc2)c1 (stereo not drawn)
→ -0.2%	6.2

# The results go on:
# Order of results: PINK1 expr mod	TRPML1 agonist
Cc1cccc(CN2CCN(CC(=O)NCc3ccc(Cl)cc3)C2=O)c1
→ -0.6%	-0.7
O=S(=O)(c1cccc(Cl)c1)c1nnn2c1nc(NC1CCCC1)c1sccc12
→ 4.9%	1.0
O=C(CCCCCn1c(=O)[nH]c2ccccc2c1=O)N1CCN(c2ccc(Cl)cc2)CC1
→ 1.8%	0.2
COc1ccc(OC)c(CNc2nc3ccc(C)cc3n3nnnc23)c1
→ 3.0%	2.1
Cc1ccccc1NC(=O)CN1C(=O)C2(SCC(=O)N2c2ccc(F)cc2)c2ccccc21 (stereo not drawn)
→ -5.0%	2.6
CCOc1ccccc1NC(=O)c1nc2nc(C)cc(C(F)F)n2n1
→ 1.4%	0.1
COc1cc(OC)cc(C(=O)NCCc2csc(-c3cccc(C)c3)n2)c1
→ 1.5%	1.8
Cc1ccc(F)cc1NC(=O)CCc1c(C)nn(-c2ccc(N3CCCC3)nn2)c1C
→ 0.0%	-0.9
COc1ccc(OC)c(NC(=O)c2ccc(-c3nc(CSc4ccccc4)c(C)o3)cc2)c1
→ 6.2%	0.4
Cc1ccc(NC(=O)Cn2ccn(-c3ccc(F)c(F)c3)c(=O)c2=O)cc1C
→ 1.4%	-0.1
Cc1cc2c(n1-c1ccc(C(=O)NCCc3ccc(Cl)cc3)cc1)CCC(C)C2 (stereo not drawn)
→ -0.5%	0.7
Cc1ccc(CCNC(=O)c2c(C)oc3ncn(CC(C)C)c(=O)c23)cc1
→ 1.2%	1.3
CC1CCN(C(=O)c2ccccc2NC(=O)c2nsc3ccccc23)CC1
→ -0.4%	1.4
CCn1c(CN2CCOCC2)nc2cc(NC(=O)c3cccc([N+](=O)[O-])c3)ccc21
→ 0.8%	-0.5
COc1cc(NC(=O)Cc2noc3ccccc23)cc(OC)c1OC
→ -0.6%	-0.5
CCC(CC)c1nn2c(=O)cc(COc3ccc(NC(=O)c4cccc(Cl)c4)cc3)nc2s1
→ 2.6%	0.3
Cc1ccc(-c2cn3c(n2)sc2cc(C(=O)NC(C)C45CC6CC(CC(C6)C4)C5)ccc23)cc1 (stereo not drawn)
→ 0.3%	-0.2
COc1ccc(/C=C/C(=O)Nc2ccc3nc(N4CCC(C)CC4)cc(C)c3c2)cc1
→ 15%	0.1
COc1cc(NC(=O)Cn2ncc3c(=O)oc4ccccc4c32)cc(OC)c1OC
→ 1.9%	-0.8
Cc1cc(C)n(-c2nc(C)c(C)c(=O)n2CC(=O)Nc2ccc(Cl)c(Cl)c2)n1
→ 0.6%	-0.5
Cc1ccc(/C=C/C(=O)Nc2nc(-c3cccs3)ns2)cc1
→ 1.3%	1.4
CN1c2ccc(Cl)cc2-c2nc(SCC(=O)Nc3cc(F)ccc3F)ncc2S1(=O)=O
→ 0.7%	1.0
CCCCN1CC(c2nc3ccccc3n2CCCCOc2cccc(C)c2C)CC1=O (stereo not drawn)
→ -0.5%	1.0
CCOCCCn1c(=N)c(C(=O)NC(C)c2ccccc2)cc2c(=O)n3cccc(C)c3nc21 (stereo not drawn)
→ 4.2%	-0.3
Cc1ccc(NC(=O)c2nc(S(=O)(=O)Cc3cccc(C)c3)ncc2Cl)cc1
→ 0.9%	-0.8
COc1cccc(CNCCCSc2nnnn2C)c1
→ -0.9%	0.3
COc1ccc(N(C(=O)c2cccc(C)c2)S(=O)(=O)c2ccc(C)cc2)cc1
→ 0.7%	0.6
COc1ccc(Br)cc1CNC(=O)c1ccc2nc(C(C)C)oc2c1
→ 2.1%	2.5
O=C(NCc1ccc(Cl)cc1)C(=O)Nc1cccc(Br)c1
→ 6.6%	3.2
CCN(CC)CCCNC(=O)CSc1nc(-c2ccc(OC)cc2)cc(C(F)(F)F)n1
→ 2.7%	-0.4
Cc1cccc(CNC(=O)Cn2ccc3cc(S(=O)(=O)N4CCC(C)CC4)ccc32)c1
→ 6.5%	1.3
COC(=O)c1ccc(NC(=O)CC2C(=O)N(c3ccc(Cl)cc3)C(=O)N2Cc2ccco2)cc1 (stereo not drawn)
→ 5.5%	0.0
C[n+]1ccnc2ccccc21
→ -0.8%	2.4
Cc1ccc(S(=O)(=O)CC(=O)Nc2sc3c(c2C#N)CCCCC3)cc1
→ 0.5%	1.7
CCc1nn(CCCC(=O)NCc2ccc(OC)c(OC)c2)c(=O)c2cc3occc3n12
→ 0.0%	-0.1
Cc1cccc(-c2nc3c4ccccc4nc(N4CCN(c5cc(C)ccc5C)CC4)n3n2)c1
→ 0.3%	0.1
CCCCCn1c(NCc2ccccc2OC)nc2ccccc21
→ ?	3.1
Cc1ccc(C(=O)c2cn(Cc3cccc(Cl)c3)c3nc(C)ccc3c2=O)cc1
→ 0.0%	-0.5
Nc1nc[nH]c(=O)c1N
→ -0.1%	0.4
Cc1ccc(Cl)cc1N1CCN(CCCNC(=O)Cn2ncc3c([nH]c4ccccc43)c2=O)CC1
→ 1.5%	3.5
COc1ccc(NC(=O)Cn2nnc(C(=O)Nc3ccc(C)c(F)c3)c2N)cc1Cl
→ ?	0.3
Cc1cc(C)c(NC(=O)c2nc3ccccc3nc2N2CCCCC2)c(C)c1
→ 0.8%	0.0

# Not all compounds are listed; the hit share may differ from the screen's.
